Screening data deposited in PubChem by several laboratories.
Bfl-1 A1 inh = caspase 3/7 activation in MEF A1-2A-BIM cells, primary screen, A1 inhibitor project, cell-based, luminescence, HTS; Caspase-Glo 3/7 luminescence, 3 h; percent of clofoctol response, vehicle zero; caspase activation, % (test concentration not listed); actives 0.066% (n = 330,000);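 active = over half of replicate activation scores above 10%, or exactly half above 10 with the replicate mean above 10; inconclusive = replicate mean below 10 yet half the replicates above 10; inactive = over half of replicates below 10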;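 also: wells of about 30 µL received 50 nL stock; many hits fall short of the cut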
Vif A3G = inhibitors of Vif binding to APOBEC3G peptide, primary screen, biochemical, TR-FRET, GST-Vif 1-94, biotin-A3G peptide, dose response retest (AID 1117319); TR-FRET GST-Vif / biotin-A3G peptide binding; higher % means a stronger effect; test concentration not given here; strong numbers were not always called active; actives 0.57% (n = 260,000); Virion infectivity factor (Human immunodeficiency virus type 1 group M subtype B (isolate …; one-dose inhibition, %; IC50 in µM for titrated hits;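 active = above the screen mean plus three standard deviations and confirmed in dose response; inconclusive = results disagree or hit not tested in dose response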;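 also: Vif residues 1-94 fused to GST binding biotinylated APOBEC3G peptide 110-148; 0% = full assay without inhibitor and 100% = GST in place of GST-Vif; retest series ran down from 100 µM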
T cruzi inh = inhibitors of intracellular T. cruzi growth, primary screen, luminescence, NIH3T3 host cells; T. cruzi beta-gal in NIH3T3, 90 h; inhibition, % (concentration not given with the values); actives 1.4% (n = 300,000);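 active = mean inhibition across valid replicates above about 55%, limit read from the data; inconclusive = mean below that limit but half or more replicates reach it; inactive = mean below it, under half of replicates reach it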;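 also: signal also drops with host cell toxicity which is not excluded here; 0% = plate median of DMSO wells and 100% = zero luminescence signal; higher percent means less beta-gal luminescence so fewer parasites; stock transfer was 50 nL into about 50 µL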
MLL AF4-AF9 inh = inhibitors of AF4 peptide binding to AF9, primary screen, biochemical, AlphaScreen, biotin-AF4 peptide, FLAG-AF9, single point | Protein AF-9 (Homo sapiens), P42568 | inhibition, % at 10 µM | actives 0.47% (n = 350,000) | AID 651704, 2012;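 active = every replicate reaching a set inhibition limit, whatever the replicate mean, cut at about 25% in these data; inconclusive = mean inhibition reaches that limit but some replicates miss it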;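 also: 0% = plate neutral control median and 100% = total signal loss; the record names both 10 and 1 µM as test concentration; the first replicate is given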
Target sequence (P42568 whole entry, looked up): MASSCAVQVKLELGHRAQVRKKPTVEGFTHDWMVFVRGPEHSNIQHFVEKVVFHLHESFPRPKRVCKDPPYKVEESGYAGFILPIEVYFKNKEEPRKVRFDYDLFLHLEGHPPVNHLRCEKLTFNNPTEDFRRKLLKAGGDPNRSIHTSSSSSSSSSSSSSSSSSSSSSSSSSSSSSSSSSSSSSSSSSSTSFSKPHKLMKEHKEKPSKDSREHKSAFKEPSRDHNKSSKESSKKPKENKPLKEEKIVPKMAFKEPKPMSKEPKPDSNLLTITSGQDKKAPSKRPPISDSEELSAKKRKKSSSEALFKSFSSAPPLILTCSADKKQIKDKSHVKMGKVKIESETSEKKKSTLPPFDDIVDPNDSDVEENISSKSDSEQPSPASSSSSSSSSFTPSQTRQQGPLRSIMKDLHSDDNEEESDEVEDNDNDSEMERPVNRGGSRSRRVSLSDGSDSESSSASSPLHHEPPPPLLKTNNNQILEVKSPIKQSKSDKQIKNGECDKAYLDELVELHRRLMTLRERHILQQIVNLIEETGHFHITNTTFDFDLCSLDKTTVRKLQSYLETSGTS
Calb FLC = C. albicans growth inhibition with fluconazole, primary screen, CaCi-2 strain, Alamar Blue fluorescence; C. albicans CaCi-2 (fluconazole-resistant clinical isolate) + fluconazole, 48 h; actives 0.57% (n = 300,000); growth inhibition, % (test concentration not listed);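 active = most replicates above 75%; inconclusive = exactly half above 75%; inactive = most below 75%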;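 also: all wells also contain fluconazole at 8 µg/ml as a sub-toxic cotreatment; 0% = median of DMSO wells and 100% = median of geldanamycin control wells; wells of about 8 µL received 7.5 nL stock; the first replicate is given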
Ecoli rRNA inh = reduced GFP signal of wild-type E. coli, primary screen, bacterial rRNA inhibitor project, GFP/RFP fluorescence, OD600, single point. E. coli WT GFP vs humanized-ribosome RFP mutants, 24 h; active compounds read low; DMSO median 0, no signal -100. GFP signal change (wild-type ribosome), % (concentration not given with the values). AID 720706, 2013. actives 1.6% (n = 350,000);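 active = significant combined selectivity score with lowered wild-type GFP, culture density cut under 30%, mutant RFP and density less affected; inactive = any of these conditions unmet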; also: one replicate is shown; some compounds called inactive have numbers as strong as hits
Beta apoptosis = inhibitors of cytokine-induced beta cell apoptosis, primary screen, luminescence; actives 0.8% (n = 300,000); INS-1E cytokine-induced death, ATP luminescence, 48 h; percent of positive-control rescue, neutral wells zero; protection from apoptosis, % (concentration not given with the values);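 active = all replicates at 75% or more, or half of them and the mean; inconclusive = half reach 75% but not the mean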;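 also: 0% = cytokine-treated negative control wells and 100% = positive control rescue; higher means more ATP so stronger rescue from cytokine killing; wells of about 40 µL received 100 nL stock; the first replicate is given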
RanGTP-Impb inh = inhibitors of RanGTP-importin-beta interaction, primary screen, biochemical, FRET, CFP-Ran, YFP-importin-beta, homogeneous; Ran GTPase (GTP-bound) - importin-beta complex; actives 1.1% (n = 300,000); inhibition, % (test concentration not listed); cell-free CFP-Ran/YFP-importin-beta FRET ratio; AID 2216, 2009;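 active = most replicates above 15%; inconclusive = exactly half above 15%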;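 also: 0% = DMSO wells and 100% = Ran loaded with GDP instead of GTP; wells of about 40 µL received 100 nL stock; the first replicate is given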
Ecoli rRNA inh OD600 = second read-out of Ecoli rRNA inh, no call of its own (marks repeat the call); OD600 change, %; measured here: OD600 growth;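 optical density of the mix in the first replicate; 0 = DMSO median and -100 = no signal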
Ecoli rRNA inh RFP = recorded beside Ecoli rRNA inh, whose call it bears; RFP signal change, %; measured here: RFP humanized mutant strains;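 first replicate; 0 = DMSO median and -100 = no signal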
Numbers without * were called inactive; ? = inconclusive; . = no result given; & = joins results of further samples. Only part of the results is shown, so the mix of outcomes need not match the whole.

SMILES,Bfl-1 A1 inh,Vif A3G,T cruzi inh,MLL AF4-AF9 inh,Calb FLC,Ecoli rRNA inh,Ecoli rRNA inh OD600,Ecoli rRNA inh RFP,Beta apoptosis,RanGTP-Impb inh
Cn1c(N)c(C(=O)COC(=O)c2nc(Cl)ccc2Cl)c(=O)n(C)c1=O,-0.1,6%,-17,-0.2,0,18,8,3.0,7,-1.0
CN1CCc2c(OCC(=O)N3N=C(c4cccs4)CC3c3ccc(F)cc3)cccc2C1=O (stereo not given),-0.3,.,31,10,8,.,.,.,-9,-1.8
CC1Cc2ccccc2N1C(=O)COC(=O)C1(c2ccccc2F)CCCC1 (stereo not given),0.7,.,18,.,-13,.,.,.,23,4.3
COc1ccc(/C=N/NC(=O)c2ccc(O)cc2O)cc1CSc1ccccn1,0.6,.,0,-0.2,-9,.,.,.,-3,1.0
CCOc1cc(N2CCOCC2)c(OCC)cc1NC(=O)c1cc(-c2ccco2)nc2ccccc12,0.3,6%,-17,-45,-2,12,4,-2.3,16,-1.5
CSc1ccc(C(=O)NC2CCSc3ccccc32)cc1 (stereo not given),-0.7,.,3,8.9,-8,6,9,0.0,3,?
Cc1ccc(-n2ncc3c(=O)n(CC(=O)N(C(C)C)C(C)C)cnc32)cc1,-0.1,2%,0,-7.1,-4,8,0,4.5,-13,?
O=C(c1ccco1)N1N=C(c2cccs2)CC1c1cc([N+](=O)[O-])ccc1O (stereo not given),-0.5,.,-1,5.1,49,-3,-25,0.2,3,3.8
Cc1ccc(NC(=O)CSc2nncs2)cc1Cl,0.5,.,.,-0.2,.,-4,-8,-2.9,0,.
O=C(COc1ccc2ccc(=O)oc2c1)N1CCc2ccccc21,-0.3,1%,4,2.2,-7,15,12,2.7,-2,2.3
CC(C)n1c(/N=C/c2c[nH]c3ccccc23)nc2ccccc21,-0.3,-4%,-3,13,16,10,10,1.7,-5,?
COc1ccc(NC2=NCC(=O)N2c2ccccc2)c(OC)c1,-0.7,7%,-7,.,-1,.,.,.,-6,-0.8
CCCCOP(=O)(c1ccc(N(C)C)cc1)C(O)c1c(Cl)cccc1Cl (stereo not given),0.6,-1%,6,2.7,2,-18,-17,4.4,-10,-1.9
O=C(Cn1c2[n+](c3ccc(C(F)(F)F)cc31)CCCCC2)Nc1ccccc1,-0.2,.,-2,3.2,-13,-24,-42,-14,-4,-0.4
CC(C)CN(C(=O)COC(=O)c1cccc2ccccc12)c1c(N)n(Cc2ccccc2)c(=O)[nH]c1=O,1.1,0%,12,-38,-3,9,12,1.9,.,0.2

An excerpt from above in order of the RanGTP-Impb inh value, ascending:
smiles	RanGTP-Impb inh
CCCCOP(=O)(c1ccc(N(C)C)cc1)C(O)c1c(Cl)cccc1Cl (stereo not given)	-1.9
COc1ccc(NC2=NCC(=O)N2c2ccccc2)c(OC)c1	-0.8
O=C(Cn1c2[n+](c3ccc(C(F)(F)F)cc31)CCCCC2)Nc1ccccc1	-0.4

Going on with the list:
SMILES,Bfl-1 A1 inh,Vif A3G,T cruzi inh,MLL AF4-AF9 inh,Calb FLC,Ecoli rRNA inh,Ecoli rRNA inh OD600,Ecoli rRNA inh RFP,Beta apoptosis,RanGTP-Impb inh
CCN(CC(=O)Nc1c(F)cccc1F)C(=O)CCNS(=O)(=O)c1ccc(C)c(C)c1,1.1,7%,-3,-28,-1,6,1,-0.5,.,?
CC(=O)c1ccc(S(=O)(=O)Nc2cccc(S(=O)(=O)NC3=NCCC3)c2)cc1,0.0,.,-14,.,1,.,.,.,2,1.5
Cc1cc(NC(=O)CSc2nnc(-c3ccc([N+](=O)[O-])cc3)o2)no1,0.7,.,-35,-6.1,-15,-4,4,-1.9,3,?
O=C(Nc1ccccc1)OCCN1CCN(Cc2ccccc2)CCC1=O,0.0,.,-16,2.7,-3,1,10,5.7,5,-0.7
CCc1ccccc1N(CC(=O)NCc1ccc(OC)cc1)C(=O)CCC(=O)Nc1ccccn1,2.1,-2%,2,2.0,1,-4,-17,1.0,-4,1.1
COc1ccccc1CN=Cc1[nH]c2ccc(Br)c(Cl)c2c1O,-0.6,-1%,-2,.,?,.,.,.,-7,-3.3
CC(=O)O[C@]1(C(C)=O)CC[C@H]2[C@@H]3C=C(C)C4=CC(=O)CC[C@@H]4[C@H]3CC[C@@]21C,1.0,.,.,-3.6,.,-55,-74,-9.6,4,.
O=C(O)/C=C/C(=O)N1CCN(c2ccccc2F)CC1,1.6,-3%,-10,-49,5,0,-4,-0.9,-5,6.6
COC1=CCC2([N+](=O)[O-])CN(CCO)CC1([N+](=O)[O-])C2 (stereo not given),0.0,-10%,-11,.,-5,.,.,.,-10,6.4
Cc1cc(NC(=O)c2cc(C3CC3)on2)no1,-1.0,-2%,-14,0.0,6,7,2,2.5,-7,2.9
O=C(C[C@@H]1C/C=C\C[C@@H](Cc2ccc(F)cc2)C(=O)OC[C@H]2CCCN2C1=O)NCCO,0.8,.,.,2.4,.,30,12,-0.3,3,.
O=C(NCc1ccc2c(c1)OCO2)NC1CCCCC1,-0.6,-13%,-10,-2.3,?,14,11,1.1,-2,-3.0
CCS(=O)(=O)Nc1cccc(C2=NN(S(=O)(=O)c3ccc(C)cc3)C(c3cccs3)C2)c1 (stereo not given),?,-2%,-6,.,2,.,.,.,-2,6.6
CC(N=C1NS(=O)(=O)c2ccccc21)C(=O)NCCCc1ccccc1 (stereo not given),0.3,0%,0,-7.9,0,0,2,4.8,-2,-0.3
Cc1c(Cl)cccc1NC(=O)C1Cc2ccccc2CN1C(=O)c1ccccc1 (stereo not given),0.5,.,-4,3.1,-1,-35,-62,-2.7,-4,-1.4

Arranged by formula weight (rising): some entries from above
SMILES,Bfl-1 A1 inh,Vif A3G,T cruzi inh,MLL AF4-AF9 inh,Calb FLC,Ecoli rRNA inh,Ecoli rRNA inh OD600,Ecoli rRNA inh RFP,Beta apoptosis,RanGTP-Impb inh
Cc1cc(NC(=O)c2cc(C3CC3)on2)no1,-1.0,-2%,-14,0.0,6,7,2,2.5,-7,2.9
CC(N=C1NS(=O)(=O)c2ccccc21)C(=O)NCCCc1ccccc1 (stereo not given),0.3,0%,0,-7.9,0,0,2,4.8,-2,-0.3
CCS(=O)(=O)Nc1cccc(C2=NN(S(=O)(=O)c3ccc(C)cc3)C(c3cccs3)C2)c1 (stereo not given),?,-2%,-6,.,2,.,.,.,-2,6.6

(more compounds)
SMILES,Bfl-1 A1 inh,Vif A3G,T cruzi inh,MLL AF4-AF9 inh,Calb FLC,Ecoli rRNA inh,Ecoli rRNA inh OD600,Ecoli rRNA inh RFP,Beta apoptosis,RanGTP-Impb inh
CCN1CCN(c2sc(S(C)(=O)=O)nc2S(=O)(=O)c2ccc(C)cc2)CC1,-1.9,.,-3,3.6,-3,4,7,0.3,-8,-4.1
c1coc(CNC2C3CC4CC(C3)CC2C4)c1 (stereo not given),-0.2,3%,-21,.,-2,.,.,.,.,-1.6
COC(=O)CCCCC1SCC(NC(=O)c2ccccc2)C1=O (stereo not given),0.1,.,-9,-1.2,8,.,.,.,-17,-2.5
CCCn1cnc2cc(NCc3ccccn3)ccc21,-0.4,29µM*,-20,43*,7,2,-3,1.0,1,-3.4
Cc1nnc(NC(=O)C2CCCN(c3ncccn3)C2)s1 (stereo not given),0.1,31%,-2,.,1,.,.,.,-2,.
Cc1cccc(OCC(=O)Nc2sc3c(c2C#N)CCC3)c1,-1.5,8%,18,1.9,48,16,13,12,-4,1.1
O=C(COc1cccc2ccccc12)N1CCN(c2ccccc2)CC1,0.7,3%&3%,-2,.,-3,.,.,.,-2,2.4
O=C(O)C1C2CCC(O2)C1C(=O)NCc1ccncc1 (stereo not given),-0.2,-2%,-12,.,6,.,.,.,-20,1.5
CC(=O)c1ccc(NC(=O)CSc2nnc(Cn3c(=O)sc4ccccc43)n2C)cc1,0.2,?,.,-3.9,.,-1,4,0.1,-2,.
Cc1ccc(Nc2nc3c([nH]2)c(=O)n(C)c(=O)n3C)cc1,-0.3,2%,14,.,18,.,.,.,2,-6.8
N#Cc1ccc(COn2nnc3ccccc32)cc1,1.2,0%,-29,-2.7,1,8,3,0.3,4,2.2
O=C(O)c1cccc(NC(=O)c2cn(-c3ccccc3)nc2-c2ccc(F)cc2)c1,-0.1,.,-3,-2.4,6,-13,-16,-3.6,-8,0.2
CCOc1ccc(S(=O)(=O)N2CCCCC2)cc1NC(=O)Cc1ccsc1,-0.9,-5%,.,-2.9,.,-1,1,-1.0,-4,.
Cc1cccc(Nc2cc(=O)n(C)c(=O)[nH]2)c1,0.2,.,-15,8.7,2,11,15,0.5,-2,0.3
COc1ccccc1CC(=O)N(CCC1=CCCCC1)c1c(N)n(Cc2ccccc2)c(=O)[nH]c1=O,0.5,-2%,6,1.6,-3,3,10,0.8,6,-2.5
CC(C)Nc1ccc(Cl)cc1[N+](=O)[O-],1.3,7%,-20,.,4,.,.,.,-1,-4.1
CCC(C)NC(=O)C1CCC(=O)N(c2cc(OC)c(OC)c(OC)c2)C1c1ccc(OC)cc1 (stereo not given),0.2,?,-7,.,-1,.,.,.,-9,1.2
Clc1ccccc1CSc1nnc(-c2ccncc2)o1,-3.1,27%,17,.,26,.,.,.,-2,2.4
COc1ccc(C(CC(=O)N2CCCC2)c2c(O)cc(OC)cc2OC)cc1 (stereo not given),0.0,1%,-6,-0.7,0,11,1,1.2,-9,-0.9
Cc1ccccc1C(=O)NC(=S)NC1CCS(=O)(=O)C1 (stereo not given),0.3,-2%,-2,-2.1,8,4,6,-3.6,0,-0.6
CCC(C)/C(C)=N/NC(=O)c1ccc(COc2ccc(Cl)c(C)c2)cc1 (stereo not given),0.7,-10%,.,1.9,.,-8,-21,-24,3,.
O=C(CCC(=O)Nc1ccc(Br)cc1)N/N=C/c1ccc(O)cc1,0.3,2%,-7,-1.5,-6,3,1,8.4,-11,-1.3
NC(=O)c1ccc(NC(=O)c2ccc(COc3ccc(F)cc3)o2)cc1,-0.3,.,.,-4.9,.,3,5,-4.4,3,.
COc1ccccc1NC(=S)N(Cc1ccc(C)cc1)Cc1ccccn1,-0.5,-2%,55*,-1.4,7,-29,-31,-6.0,1,-2.9
CCCc1nnc(NC(=O)CCC(=O)NC2CCCC2)s1,-0.2,5%,-2,-2.8,.,6,13,-0.2,-1,0.5
